Assay outcomes deposited in PubChem BioAssay by several laboratories.
rRNA inh HTS – inhibitors of bacterial rRNA selective over humanized ribosomes. E. coli WT GFP vs humanized-ribosome RFP mutants, fluorescence, 24 h; hits give low values; DMSO median 0, no signal -100. GFP signal change (wild-type ribosome), % (no concentration beside the values). actives 1.6% (n = 350,000);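 active = significant combined selectivity score with lowered wild-type GFP, culture density cut under 30%, mutant RFP and density less affected; inactive = any of these conditions unmet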; also: one replicate is shown; some compounds called inactive have numbers as strong as hits
B2AR ag – activates human beta-2 adrenergic receptor causing internalization | P07550 | Am2.2-beta2AR cells, FAP receptor internalization, flow cytometry; reference of the scale not given here | response, % (no concentration beside the values) | actives 0.43% (n = 340,000);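 active = response above a set limit, near 3 SD of response in nonfluorescent compounds, cut at about 42% in these data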;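 also: stock transfer was 100 nL into about 11 µL; a reference agonist was the positive control; negative values mostly stem from fluorescent compounds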
Target sequence (P07550 whole entry, looked up): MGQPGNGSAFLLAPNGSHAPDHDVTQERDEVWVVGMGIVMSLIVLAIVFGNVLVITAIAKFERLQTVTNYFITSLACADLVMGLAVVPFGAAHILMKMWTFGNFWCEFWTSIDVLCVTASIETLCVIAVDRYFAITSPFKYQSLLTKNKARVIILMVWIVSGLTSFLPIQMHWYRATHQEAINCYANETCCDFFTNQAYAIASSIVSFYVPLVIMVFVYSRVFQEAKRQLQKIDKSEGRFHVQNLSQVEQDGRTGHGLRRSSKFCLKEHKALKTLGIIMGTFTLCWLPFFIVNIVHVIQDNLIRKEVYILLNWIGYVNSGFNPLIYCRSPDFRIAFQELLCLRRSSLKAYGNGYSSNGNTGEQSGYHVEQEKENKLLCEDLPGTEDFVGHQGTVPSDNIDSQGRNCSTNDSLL
T cruzi inh – blocks replication of Trypanosoma cruzi | T. cruzi beta-gal in NIH3T3, luminescence, 90 h | inhibition, % (concentration not given with the values) | actives 1.4% (n = 300,000);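 active = mean inhibition across valid replicates above about 55%, limit read from the data; inconclusive = mean below that limit but half or more replicates reach it; inactive = mean below it, under half of replicates reach it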;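 also: signal also drops with host cell toxicity which is not excluded here; 0% = plate median of DMSO wells and 100% = zero luminescence signal; higher percent means less beta-gal luminescence so fewer parasites; stock transfer was 50 nL into about 50 µL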
Beta apoptosis – blocks beta cell apoptosis; INS-1E cytokine-induced death, ATP luminescence, 48 h; percent of positive-control rescue, neutral wells zero; protection from apoptosis, % (no concentration beside the values); actives 0.8% (n = 300,000); AID 435005;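 active = all replicates at 75% or more, or half of them and the mean; inconclusive = half reach 75% but not the mean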;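 also: 0% = cytokine-treated negative control wells and 100% = positive control rescue; higher means more ATP so stronger rescue from cytokine killing; wells of about 40 µL received 100 nL stock; the first replicate is given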
A1 inh – inhibitors of the anti-apoptotic protein A1, read as caspase activation | actives 0.066% (n = 330,000) | MEF A1-2A-BIM cells, Caspase-Glo 3/7 luminescence, 3 h; percent of clofoctol response, vehicle zero | AID 2462 | caspase activation, % (no concentration beside the values);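 active = over half of replicate activation scores above 10%, or exactly half above 10 with the replicate mean above 10; inconclusive = replicate mean below 10 yet half the replicates above 10; inactive = over half of replicates below 10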;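 also: wells of about 30 µL received 50 nL stock; many hits fall short of the cut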
LANA-H2B inh – blocks KSHV LANA binding to histone H2A/H2B; cell-free LANA-H2A/H2B peptide, fluorescence polarization; inhibition, % (test concentration not listed); actives 0.6% (n = 320,000); AID 2629; in the data active = inhibition mostly above about 10%, no sharp cut-off; inactive = mostly below about 6.7%;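 also: stock transfer was 7.5 nL into about 10 µL; 0% = median of vehicle wells and 100% = median of positive control wells; one replicate is shown; the record names a cut of 25% in any replicate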
Calb FLC – C. albicans growth modulation with fluconazole | C. albicans CaCi-2 (fluconazole-resistant clinical isolate) + fluconazole, Alamar Blue growth, 48 h | growth inhibition, % (no concentration beside the values) | actives 0.57% (n = 300,000) | AID 1979;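 active = most replicates above 75%; inconclusive = exactly half above 75%; inactive = most below 75%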;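 also: all wells also contain fluconazole at 8 µg/ml as a sub-toxic cotreatment; 0% = median of DMSO wells and 100% = median of geldanamycin control wells; wells of about 8 µL received 7.5 nL stock; the first replicate is given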
ALR H2O2 inh – blocks human ALR sulfhydryl oxidase activity. P55789. purified ALR, DTT oxidation, H2O2 HRP-luminol luminescence. inhibition, % (test concentration not listed). actives 3.8% (n = 290,000). AID 485317;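 active = mean and each replicate at 75% or more; inconclusive = only one of the two met; inactive = neither met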;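 also: stock transfer was 7.5 nL into about 7.5 µL; 0% = neutral wells and 100% = wells with inactivated enzyme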
Target sequence (P55789 whole entry, looked up): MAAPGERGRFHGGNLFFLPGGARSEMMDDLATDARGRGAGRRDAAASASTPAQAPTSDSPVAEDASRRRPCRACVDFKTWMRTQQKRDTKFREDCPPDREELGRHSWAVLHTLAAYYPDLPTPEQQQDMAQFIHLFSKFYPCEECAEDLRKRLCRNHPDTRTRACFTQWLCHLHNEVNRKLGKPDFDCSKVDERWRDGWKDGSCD
rRNA inh HTS OD600 – also measured in rRNA inh HTS; calls as there; OD600 change, %; measured here: OD600 growth;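 optical density of the mix in the first replicate; 0 = DMSO median and -100 = no signal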
rRNA inh HTS RFP – further read-out of rRNA inh HTS, marked with its call; RFP signal change, %; measured here: RFP humanized mutant strains;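 first replicate; 0 = DMSO median and -100 = no signal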
* marks the source's active call; other numbers are inactive results; ? = inconclusive; · = no result given. These rows are one share of the data, so the mix of outcomes need not match the whole.

compound	rRNA inh HTS OD600	B2AR ag	rRNA inh HTS	rRNA inh HTS RFP	LANA-H2B inh	T cruzi inh	ALR H2O2 inh	A1 inh	Beta apoptosis	Calb FLC
O=C(COc1ccccc1)NCC(c1cccs1)N1CCOCC1 (stereo not drawn)	2	7	3	1.3	6.1	-3	-5	-0.3	4	4
CCCn1c(-c2cccs2)nc2ccccc21	·	-7	·	·	-2.3	2	-16	0.5	0	-4
COc1ccc(C2C3=C(CCCC3=O)Nc3n[nH]c(C)c32)cc1OC (stereo not drawn)	0	0	5	-1.6	3.2	-5	5	0.4	-10	1
COc1cccc(N2CC(=O)N(c3cccc(OC)c3)CC2=O)c1	7	0	-2	-4.4	3.2	-11	-6	-1.1	-3	-3
CCOc1ccccc1COC(=O)c1cccc(-n2cnnn2)c1	·	-4	·	·	-0.7	-14	-12	-0.8	·	2
COc1ccc(CN2C(=O)NC(C)(c3ccc(C)cc3)C2=O)cc1F (stereo not drawn)	1.0*	3	-22*	5.4*	-5.3	1	-4	0.2	-3	0
O=C(c1ccccc1Cl)N1CCn2c1nc1ccccc12	0	-2	1	-4.8	1.1	-15	2	1.2	-3	4
CCOC(=O)C1CCCN(C(=O)c2ccc(CNS(=O)(=O)c3ccc(C)cc3)cc2)C1 (stereo not drawn)	-23	-4	-10	-1.5	1.7	6	-21	-1.0	0	?
CCN(CC)C(=O)Nc1ccccc1C	·	0	·	·	8.0	0	-5	0.2	-2	6
Cc1c(C(=O)NCc2cccs2)oc2ccccc12	·	-8	·	·	-4.5	-5	-6	0.4	-7	-18
Cc1cc2oc(=O)cc(-c3cc4ccccc4o3)c2cc1O	10	3	-3	8.7	-0.6	-21	·	-0.1	28	21
COc1cc([N+](=O)[O-])cc(/C=N/NC(=O)c2cc(-c3ccccc3)nc3ccccc23)c1O	-2	2	4	-9.6	-5.2	11	0	-1.0	79*	89*
CCn1cc(/C=C(\NC(=O)c2ccccc2OC)C(=O)NCCCN2CCOCC2)c2ccccc21	0	-4	2	1.7	-0.3	6	7	0.5	3	-1
CCOc1ccc2nc(SCC(=O)Nc3ccc4c(c3)OCCO4)[nH]c2c1	·	9	·	·	2.2	1	-4	1.2	2	0
CC(C(=O)NC1CCS(=O)(=O)C1)N1C(=O)/C(=C/c2ccc(Cl)cc2)SC1=S (stereo not drawn)	-16*	-7	-21*	1.1*	8.5	6	99*	-0.2	1	-4
Cc1nn(Cc2c(F)cccc2Cl)c(C)c1NC(=O)C1CC1	·	7	·	·	-2.6	-12	3	-0.5	0	38
CCSc1nnc(NC(=O)c2cc(C)oc2C)s1	·	10	·	·	3.5	-3	9	-3.5	-2	4
COc1ccc(CNC(=O)C(=O)NCCC2CCCCN2S(=O)(=O)c2cccs2)cc1 (stereo not drawn)	2	1	-3	-0.3	-0.3	6	0	0.5	·	-7
C=CCn1c(Cc2cccs2)nnc1SCC(=O)Nc1ccc(C(=O)OCC)cc1	·	0	·	·	11	41	-11	-0.5	-6	-21
COc1cccc(C2C(C#N)=C(N)Oc3cc(C)[nH]c(=O)c32)c1OC (stereo not drawn)	·	1	·	·	-3.8	-9	-4	0.1	1	-2
COC(=O)c1ccccc1NC(=O)CSc1nc2cccnc2n1C	-5	5	-8	-4.7	1.6	-8	-14	0.0	0	33
O=C(Cn1cc2c(n1)CCCC2)Nc1ccccc1Cl	-10	-3	-4	-2.7	2.8	0	-3	0.6	1	4
O=C1CCN(CCCc2ccccc2)CCN1[C@H](CO)c1ccccc1	2	-4	8	2.5	-1.7	-14	·	-0.1	5	1
CCOc1ccc(Nc2ccc(N3C(=O)CCC3=O)cc2[N+](=O)[O-])cc1	12	-6	2	18	-0.1	?	·	1.1	9	-3
Cc1cc(NC(=O)C2CCCCC2)n(-c2nc3ccccc3[nH]2)n1	·	-6	·	·	-1.7	6	-8	0.4	24	-3
C/C(=N\Nc1ccc(F)cc1F)c1ccc(N2CCOCC2)cc1	-1	3	-7	-1.2	-0.8	-4	40	1.2	-2	104*
CC(C)(C)SCCSC1=CC(=O)CC(c2ccccc2)C1 (stereo not drawn)	-3	3	-5	-1.2	2.1	20	-110	0.5	-3	-3
Cc1ccc2[nH]c(=O)c3cc(C(=O)N(C)c4ccc(C)c(C)c4)sc3c2c1	11	2	13	-1.6	3.0	35	-4	1.2	8	-3
O=c1c(-c2ccc(Cl)cc2)[n+]([O-])c2ccccc2n1O	·	0	·	·	-0.9	-31	·	0.4	2	1
CCOc1cc(C(=O)Nc2ccc(S(=O)(=O)Nc3cc(C)on3)cc2)cc(OCC)c1OCC	·	-1	·	·	-0.9	-21	6	-0.1	-2	-9
Cn1c(=O)c2c(nc(CN3CCN(c4ccccc4)CC3)n2CCCc2ccccc2)n(C)c1=O	·	·	·	·	1.3	24	·	0.6	-3	-5
CCCC(=O)Nc1c2c(nn1-c1ccc(F)cc1)CS(=O)(=O)C2	20	1	8	-1.3	-2.1	-6	2	0.5	0	-2
CCc1ccc(NC(=O)c2cc(C)no2)cc1	1	-2	6	-7.4	2.9	4	-18	-1.1	-5	-4
C=CCn1c(SCc2cc(C(=O)OC)c(C)o2)nnc1-c1ccncc1	·	-5	·	·	-1.2	7	6	0.0	2	-13
N#C/C(=C/c1ccc(-c2cc(C(=O)O)cc(C(=O)O)c2)o1)c1nc2ccccc2s1	·	·	·	·	-12	5	40	-0.2	-3	10
CC(=O)c1cccc(NC(=O)CCc2nc3sc4c(c3c(=O)[nH]2)CCCC4)c1	8	-10	5	2.3	2.3	1	-2	0.1	-3	12
COCCNC(=O)CSc1ccc(C)cc1	·	15	·	·	-3.2	-7	-10	-0.6	3	-4
O=C(CN(C(=O)CCC(=O)Nc1nccs1)c1cccc(F)c1)NCc1ccccc1	15	8	0	-1.6	-2.8	-1	0	3.0	-5	-3
CCNC(=O)n1nccc1C(C)Oc1ccc(Cl)cc1 (stereo not drawn)	·	2	·	·	0.8	7	·	0.3	6	7
CCCNC(=O)Cc1ccsc1	·	0	·	·	2.4	-20	-2	0.0	-3	?
CC(C)NC(=O)c1ccc(CSCc2ccccc2Cl)o1	-21	-6	-10	-1.4	3.2	9	99*	0.0	-2	-3
CC(=O)c1ccc(C(=O)Nc2ccc3c(c2)C(=O)NC3=O)cc1	17	6	8	0.7	-1.9	-8	-2	-0.2	3	17
Cc1c(-c2n[nH]c(=S)n2-c2ccc(Br)cc2)nnn1-c1ccc(Cl)cc1	-75	-8	-56	-25	·	-8	·	·	·	2
C[C@@H](C(=O)OCC(=O)c1ccc(F)c(F)c1)N1C(=O)C2CCCCC2C1=O (stereo partly drawn)	0	-2	2	-0.5	0.8	·	·	0.2	-12	·
Fc1ccc(NC(=S)N2CCN(c3ccccn3)CC2)cc1Cl	-0.4*	-12	-22*	-6.0*	0.2	37	10	0.3	-3	-21
CCc1nnc(NC(=O)/C=C/c2ccc(C)o2)s1	·	3	·	·	4.9	1	0	0.8	3	-9
Cc1cc2oc(C(=O)Nc3ccc(S(=O)(=O)Nc4nccs4)cc3)cc(=O)c2cc1Cl	·	-4	·	·	-4.6	-23	·	0.5	-3	-13
CCn1c(SCc2nc3cc(OC)c(OC)cc3c(=O)[nH]2)nnc1-c1ccncc1	·	-2	·	·	-0.9	-14	-3	-1.2	-2	-1
Nc1cccc(-c2nnc3n2CCCCC3)c1	14	10	7	-1.1	-0.4	-21	6	0.0	-3	1
CCOc1ccc(NC(=O)CN2CCN(CC(=O)Nc3ccc(N(C)C)cc3)CC2)cc1	14	2	13	-0.2	·	-3	·	·	·	-3
O=C1c2ccccc2C(=O)N1CCC(c1ccccc1)c1ccco1 (stereo not drawn)	·	5	·	·	0.6	-9	34	0.7	-6	17
FC(F)(F)c1ccccc1/C=N/N1CCN(Cc2ccccc2)CC1	-20	3	-21	-1.4	0.4	11	-3	1.5	5	-4
COCCN(C(=O)COC(=O)c1cc2c(s1)CCCC2)c1c(N)n(Cc2ccccc2)c(=O)[nH]c1=O	5	-4	1	5.4	-0.9	11	-14	-0.3	·	0
CC(=O)NC1=NN(C(C)=O)C(c2cccc([N+](=O)[O-])c2)S1 (stereo not drawn)	1	13	1	-0.6	1.7	5	-11	-0.1	-15	-1
COC(=O)C1(C(F)(F)F)N=C(N(C)C)OC(N(C)C)=N1	·	2	·	·	4.2	-10	·	0.5	-4	-8
CC(C)n1c2ccccc2c2nnc(SCC(=O)OCN3C(=O)c4ccccc4C3=O)nc21	·	2	·	·	-0.1	-14	-4	0.6	-2	16
COc1ccccc1C(=O)NCCSCc1c(F)cccc1Cl	-73	-13	-53	-23	11	9	-24	?	3	4
NC(=O)C1CCN(C(=O)c2ccc(CS(=O)(=O)c3c(Cl)cccc3Cl)o2)CC1	-6	6	13	-1.6	-1.2	-2	-14	0.9	·	1
COc1ccccc1C(=O)C1CCCN(C(=O)CCn2cnnn2)C1 (stereo not drawn)	-2	-1	6	-0.2	-2.8	1	·	0.2	-1	2
CCN(CC)C(=O)Oc1cc2c(-c3cc4cccc(OC)c4o3)cc(=O)oc2cc1C	0	7	-4	-2.2	-3.0	31	2	-0.9	17	5

New compounds follow.
compound	rRNA inh HTS OD600	B2AR ag	rRNA inh HTS	rRNA inh HTS RFP	LANA-H2B inh	T cruzi inh	ALR H2O2 inh	A1 inh	Beta apoptosis	Calb FLC
O=C(NP(=O)(N1CCOCC1)N1CCOCC1)C1=C(N2CCOCC2)/C(=C\c2ccccc2)CC1	5	-2	10	-0.3	2.0	1	0	0.2	-1	-2
NS(=O)(=O)c1cccc(NC(=O)COC(=O)CCC2CCCC2)c1	-1	-9	4	5.8	2.2	·	3	-1.2	-3	·
CCOC(=O)C1CCCN(CC(O)COc2ccc(OC)cc2C(C)(C)C)C1 (stereo not drawn)	·	11	·	·	-0.3	21	-15	-0.8	-7	16
CCCOC(=O)C(C)Sc1n[nH]c(=O)[nH]c1=O (stereo not drawn)	8	2	18	4.5	-5.0	1	-10	-0.1	-1	-8
CC1CC(C)(C)CC2(C1)NC(=O)N(CC(=O)Nc1nccs1)C2=O (stereo not drawn)	9	-6	1	-0.5	-1.7	-1	-3	1.1	4	-5
CC1=C(C(=O)OCC2CCCO2)C(c2ccccc2)C2=C(CC(C)(C)CC2=O)N1 (stereo not drawn)	-13	-9	-1	0.0	-1.7	13	-2	-0.8	-7	-4
O=C1CCCCCCCCCC/C(=N\O)CCCO1	-33	12	-37	-4.9	0.2	-19	-1	-0.7	-3	1
CC1CCN(C(=O)c2ccc(NC(=O)CC3SC(N4CCCC4)=NC3=O)cc2)CC1 (stereo not drawn)	2	4	7	-1.4	-1.2	-10	-4	0.0	1	11
